From PubChem
FGF22 binding: binders of human FGF22 protein, primary screen, FGF22 synaptogenesis inhibitor project, biophysical, thermal shift, single point; calls only at 9.99 µM; Fibroblast growth factor 22 (Homo sapiens), Q9HCT0; hit rate 1.5% among 340,000; recombinant FGF22 thermal shift, SYPRO orange fluorescence; percent of sucrose octasulfate shift, DMSO zero; AID 651658, 2012;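 active means melting point raised past a set limit in the mean and every replicate; three in four hits are not shown here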
Target sequence (Q9HCT0 whole entry, looked up): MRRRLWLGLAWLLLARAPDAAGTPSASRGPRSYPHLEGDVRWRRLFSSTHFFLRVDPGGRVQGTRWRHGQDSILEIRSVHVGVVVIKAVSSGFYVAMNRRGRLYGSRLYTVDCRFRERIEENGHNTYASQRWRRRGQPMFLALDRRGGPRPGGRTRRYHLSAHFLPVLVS
Ecoli rRNA inh: reduced GFP signal of wild-type E. coli, primary screen, bacterial rRNA inhibitor project, GFP/RFP fluorescence, OD600, single point. hit rate 1.6% among 350,000. AID 720706, 2013. GFP signal change (wild-type ribosome), % (no concentration beside the values). E. coli WT GFP vs humanized-ribosome RFP mutants, 24 h; active compounds read low; DMSO median 0, no signal -100;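 active means significant combined selectivity score with lowered wild-type GFP, culture density cut under 30%, mutant RFP and density less affected; inactive means any of these conditions unmet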; further: one replicate is shown; some compounds called inactive have numbers as strong as hits
AF4-AF9 inh: inhibitors of AF4 peptide binding to AF9, primary screen, biochemical, AlphaScreen, biotin-AF4 peptide, FLAG-AF9, single point; inhibition, % at 10 µM; hit rate 0.47% among 350,000;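 active means every replicate reaching a set inhibition limit, whatever the replicate mean, cut at about 25% in these data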;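 further: 0% = plate neutral control median and 100% = total signal loss; the record names both 10 and 1 µM as test concentration; the first replicate is given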
Target sequence (P42568 whole entry, looked up): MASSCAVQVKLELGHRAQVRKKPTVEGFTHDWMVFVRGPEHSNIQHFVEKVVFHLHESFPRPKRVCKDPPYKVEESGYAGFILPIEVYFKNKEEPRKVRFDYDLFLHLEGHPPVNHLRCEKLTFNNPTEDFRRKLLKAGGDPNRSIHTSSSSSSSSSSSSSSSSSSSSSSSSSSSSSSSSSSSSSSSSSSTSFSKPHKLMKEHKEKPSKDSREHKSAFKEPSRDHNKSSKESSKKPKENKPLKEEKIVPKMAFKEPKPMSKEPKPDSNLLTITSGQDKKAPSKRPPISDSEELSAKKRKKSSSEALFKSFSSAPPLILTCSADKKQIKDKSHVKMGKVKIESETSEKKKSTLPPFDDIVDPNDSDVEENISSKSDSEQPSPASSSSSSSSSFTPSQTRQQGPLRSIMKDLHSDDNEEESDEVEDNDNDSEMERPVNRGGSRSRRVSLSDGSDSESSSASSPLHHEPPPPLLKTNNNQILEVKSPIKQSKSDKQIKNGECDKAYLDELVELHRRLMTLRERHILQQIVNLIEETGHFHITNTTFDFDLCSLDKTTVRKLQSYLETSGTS
Ecoli rRNA inh OD600: also measured in Ecoli rRNA inh; calls as there; OD600 change, %; measured here: OD600 growth;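 optical density of the mix in the first replicate; 0 = DMSO median and -100 = no signal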
Ecoli rRNA inh RFP: also measured in Ecoli rRNA inh; calls as there; RFP signal change, %; measured here: RFP humanized mutant strains;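 first replicate; 0 = DMSO median and -100 = no signal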
* = called active by the depositor; i = inactive; & = joins results of further samples. An excerpt (hit frequency here may not be typical).

Start of the data: the first 2 records (preview)
1) CCC(=O)Nc1ccc2c(c1)OC[C@@H](C)N(CCc1ccccc1)C[C@H](C)[C@@H](OC)CN(C)C2=O
2) C[C@H]1CN([C@@H](C)CO)C(=O)c2cc(-c3ccc(F)cc3)cnc2O[C@@H]1CN(C)C(=O)c1cccnc1

Assay by compound	1	2
FGF22 binding	i	i
Ecoli rRNA inh	-4	-2
Ecoli rRNA inh OD600	-12	-4
Ecoli rRNA inh RFP	0.7	-3.0
AF4-AF9 inh	-2.1	-2.9

Main list, from the start:
1) CCC(=O)Nc1ccc2c(c1)OC[C@@H](C)N(CCc1ccccc1)C[C@H](C)[C@@H](OC)CN(C)C2=O
2) C[C@H]1CN([C@@H](C)CO)C(=O)c2cc(-c3ccc(F)cc3)cnc2O[C@@H]1CN(C)C(=O)c1cccnc1
3) C[C@H](CO)N1C[C@H](C)[C@H](CN(C)C(=O)NC2CCCCC2)Oc2c(NC(=O)Nc3ccccc3)cccc2C1=O
4) CN1C[C@H]2[C@@H](c3ccccc31)[C@@H](CO)N2C(=O)C1CCCCC1
5) O=C(CC1CC1)N1CC(=O)N2[C@@H](CO)[C@H](c3ccc(-c4cccnc4)cc3)[C@@H]2C1
6) CO[C@@H]1CN(C)C(=O)c2ccc(NC(=O)c3ccccc3)cc2OC[C@@H](C)NC[C@H]1C
7) COc1ccc(NC(=O)N[C@H]2CC[C@@H](CCNC(=O)c3ccccc3F)O[C@H]2CO)cc1
8) Cc1noc(C)c1NC(=O)Nc1ccc2c(c1)C(=O)N([C@H](C)CO)C[C@H](C)[C@@H](CN(C)C(=O)Nc1ccc(C(F)(F)F)cc1)OCCCC[C@H](C)O2

Assay by compound	1	2	3	4	5	6	7	8
FGF22 binding	i	i	i	i	i	i	i	i
Ecoli rRNA inh	-4	-2	-6	0	4	0	2	-1
Ecoli rRNA inh OD600	-12	-4	-14	-4	12	-3	-3	-1
Ecoli rRNA inh RFP	0.7	-3.0	-3.4	0.3	-0.8	0.6	1.1	-2.8
AF4-AF9 inh	-2.1	-2.9	-0.4	-5.8	-2.5	0.8	-1.6	0.5

9) COc1ccc(CN2C[C@@H](C)[C@H](OC)CN(C)C(=O)c3cc(NC(=O)C4CC4)ccc3OC[C@H]2C)cc1
10) Cc1ccccc1-c1cc2nc(NCc3ccccc3)n(C)c(=O)c2s1
11) C[C@@H]1CN([C@@H](C)CO)C(=O)c2cccc(NC(=O)C3CCOCC3)c2O[C@H]1CN(C)C(=O)NC1CCCCC1
12) O=C(Nc1cccc(Cl)c1)Nc1nnc([C@H]2C[C@H](O)[C@@H](CO)O2)s1
13) CC1(C(=O)NS(=O)(=O)c2cccs2)CCN1C(=O)C1(c2ccccc2)CCCC1 (centres undefined)
14) C[C@H](CO)N1C[C@H](C)[C@H](CN(C)S(=O)(=O)c2cccs2)Oc2c(NS(=O)(=O)c3ccc(F)cc3)cccc2C1=O
15) CN(C)C(=O)c1cc2c(c(-c3cccc(C4=CCCCC4)c3)n1)[C@@H](CCO)N(S(=O)C(C)(C)C)C2 (some centres undefined)
16) C[C@@H]1CN([C@H](C)CO)C(=O)c2cc(NC(=O)Cc3ccccc3)ccc2O[C@H]1CN(C)S(=O)(=O)c1cn(C)cn1

Assay by compound	9	10	11	12	13	14	15	16
FGF22 binding	i	i	i	i	i	i	i	i
Ecoli rRNA inh	0	7	9	-9	3	-8	-5	3
Ecoli rRNA inh OD600	-9	-21	9	-12	14	-5	-5	8
Ecoli rRNA inh RFP	1.4	3.6	-1.0	2.3	5.0	2.0	-4.0	1.9
AF4-AF9 inh	5.7	-1.2	-2.3	1.4	-3.1	2.3	3.9	-3.2

17) CC=Cc1ccc2n(c1=O)C[C@H]1[C@H](CO)[C@@H](C(=O)NCc3ccc(F)cc3)N(CC)[C@@H]21 (mixture of isomers)
18) CC1(Cc2cc(Cl)ccc2C(F)(F)F)C(=O)Nc2ccc(S(=O)(=O)NC3CCCCC3)cc21 (centres undefined)
19) O=C1CC[C@@H]2CC3(C[C@@H]4CCN1[C@H]24)Nc1cc(Cl)ccc1NC3=NC1CCCCC1 (some centres undefined)
20) Cn1c(=O)c2cc(NC(=O)CCc3ccc4c(c3)OCO4)ccc2n1Cc1ccc(F)cc1
21) C[C@H](CO)N1C[C@H](C)[C@@H](CN(C)S(=O)(=O)c2cn(C)cn2)OCc2cn(nn2)CCCC1=O
22) CCOC(=O)c1oc2cc(O)cc(C)c2c1C
23) C[C@@H]1CN([C@@H](C)CO)C(=O)c2cc(NC(=O)Nc3ccccc3)ccc2O[C@@H](C)CCCCO[C@H]1CN(C)C(=O)Nc1ccc(C(F)(F)F)cc1
24) Cc1ccccc1S(=O)(=O)N[C@H]1CC[C@H](CCn2cc(-c3ccc(F)cc3)nn2)O[C@H]1CO

Assay by compound	17	18	19	20	21	22	23	24
FGF22 binding	i	i	i	i	i	i	i	i
Ecoli rRNA inh	-4	-9	-8	2	7&1	-4	4&2	-3
Ecoli rRNA inh OD600	-11	-39	-18	1	12&1	-1	6&11	-4
Ecoli rRNA inh RFP	-0.9	5.1	9.8	2.2	-0.9&-1.4	2.5	0.1&-2.6	1.8
AF4-AF9 inh	0.4	1.5	6.2	1.6	-3.7&-0.3	7.9	0.2	-1.8

25) NC(=S)NN=C1CCCCCCCC1
26) COc1ccc(NC(=O)Nc2ccc3c(c2)C(=O)N([C@@H](C)CO)C[C@H](C)[C@H](CN(C)Cc2ccc(-c4ccccc4)cc2)O3)cc1
27) CC1Cc2nc(SCC(=O)NCC3CCCO3)n(-c3ccccc3)c(=O)c2S1 (centres undefined)
28) CCC(=O)N(C)C[C@@H]1Oc2cc(/C=C/c3ccccc3)ccc2S(=O)(=O)N([C@H](C)CO)C[C@@H]1C
29) CO[C@H]1CN(C)C(=O)c2ccc(NC(=O)C3CCC3)cc2OC[C@@H](C)N(Cc2ccc(F)cc2)C[C@H]1C
30) O=C(Nc1ccc(Cl)cc1)N[C@@H]1CC[C@H](CCn2cc(C3(O)CCCC3)nn2)O[C@H]1CO
31) CCc1ccc(N2CC(C(=O)N(CC)CC(=O)Nc3c(F)cccc3F)CC2=O)cc1 (centres undefined)
32) CCCCNC(=O)C[C@@H]1C[C@@]2(C(=O)OC)CC(C)(C)CC=C2N(Cc2ccco2)C1=O

Assay by compound	25	26	27	28	29	30	31	32
FGF22 binding	i	i	i	i	i	i	i	i
Ecoli rRNA inh	16	-4	7	-9	2	-1	-3	-2
Ecoli rRNA inh OD600	24	-8	8	-30	-4	2	-12	1
Ecoli rRNA inh RFP	-1.5	2.3	4.0	4.8	-1.2	-0.8	-1.2	-2.5
AF4-AF9 inh	-0.3	2.9	0.4	11	3.4	-8.8	9.7	-3.7

33) OC[C@H]1[C@@H](c2ccc(-c3ccccc3)cc2)[C@H]2CN(Cc3cncnc3)CCCCN21
34) C[C@H]1CN([C@@H](C)CO)C(=O)c2cc(C3=CCCCC3)cnc2O[C@H]1CN(C)CC1CCOCC1
35) C[C@H](CO)N1C[C@H](C)[C@@H](CN(C)C(=O)Nc2ccccc2)Oc2ccc(NS(=O)(=O)c3cn(C)cn3)cc2CC1=O
36) Cc1ccc(S(=O)(=O)N(C)C[C@@H]2Oc3ccc(NC(=O)C4CC4)cc3C(=O)N([C@H](C)CO)C[C@H]2C)cc1
37) COCC(=O)N1C[C@@H](C)[C@@H](OC)CN(C)C(=O)c2cc(NC(=O)c3cnccn3)ccc2OC[C@H]1C
38) COc1ccc(CN(C)C[C@@H]2Oc3ccc(NC(=O)CCCN(C)C)cc3C(=O)N([C@H](C)CO)C[C@H]2C)cc1
39) CCNC(=O)[C@@H]1[C@@H](CO)[C@@H]2Cn3c(cccc3=O)[C@H]1N2CCC(F)(F)F
40) O=C(Nc1ccc(Cl)cc1)c1csc([C@@H]2O[C@H](CO)[C@H](O)[C@H](O)[C@H]2O)n1

Assay by compound	33	34	35	36	37	38	39	40
FGF22 binding	i	i	i	i	i	i	i	i
Ecoli rRNA inh	2	3	3	4	3	3	1	8
Ecoli rRNA inh OD600	18	12	5	5	3	2	1	5
Ecoli rRNA inh RFP	-6.9	-5.6	-2.6	-1.3	-2.7	-2.0	-1.2	3.8
AF4-AF9 inh	0.6	-5.4	-0.3	-0.9	0.2	-1.6	-1.8	-0.1

41) O=C(Nc1ccccc1F)N[C@@H]1CC[C@H](CCNC(=O)C2CCCC2)O[C@@H]1CO
42) C[C@@H]1CN([C@H](C)CO)C(=O)c2cc(-c3ccccc3F)cnc2O[C@@H]1CN(C)C(=O)c1cnccn1
43) C[C@H](CO)N1C[C@H](C)[C@H](CN(C)C(=O)Nc2ccc(C(F)(F)F)cc2)Oc2ccc(NS(=O)(=O)c3cn(C)cn3)cc2CC1=O
44) COc1ccc2c3c([nH]c2c1)[C@H](CO)N(C(=O)Nc1ccc(F)cc1)CC31CCN(S(=O)(=O)c2ccc(C)cc2)CC1
45) COc1ccc(S(=O)(=O)Nc2ccc3c(c2)CC(=O)N([C@@H](C)CO)C[C@H](C)[C@@H](CN(C)S(=O)(=O)c2ccc(Cl)cc2)O3)cc1
46) CCc1ccc2c(c1)NC(=O)C2(C)Cc1ccc(F)cc1 (centres undefined)
47) O=C(COC(=O)COc1ccc(Br)cc1)NC1CCS(=O)(=O)C1 (centres undefined)
48) C[C@H](CO)N1C[C@H](C)[C@H](CN(C)Cc2cncnc2)Oc2cc(C#C[C@@H](C)O)ccc2S1(=O)=O

Assay by compound	41	42	43	44	45	46	47	48
FGF22 binding	i	i	i	i	i	i	i	i
Ecoli rRNA inh	-1	-1	8	-3	0	-32	11	7
Ecoli rRNA inh OD600	1	1	17	-9	-4	-48	14	1
Ecoli rRNA inh RFP	0.7	-3.4	1.5	-0.4	1.9	-3.0	1.9	3.2
AF4-AF9 inh	-0.6	-2.4	-7.4	-0.1	1.7	-2.9	-18	-0.7

49) COc1ccccc1NC(=O)N1CCCCN2[C@H](CO)[C@H](c3ccc(-c4cccc(C)c4)cc3)[C@@H]2C1
50) CC(C)c1cn(CC[C@H]2CC[C@@H](NC(=O)C3CCCC3)[C@@H](CO)O2)nn1
51) CC(C)NC(=O)N(C)C[C@H]1OCCCC[C@@H](C)Oc2ccc(NC(=O)c3ccccc3)cc2C(=O)N([C@H](C)CO)C[C@H]1C
52) CC(C)NC(=O)N(C)C[C@@H]1Oc2c(NC(=O)CCCCCC(=O)Nc3ccccc3N)cccc2C(=O)N([C@@H](C)CO)C[C@H]1C
53) C[C@@H]1CCCCO[C@@H](CN(C)S(=O)(=O)c2ccc(Cl)cc2)[C@H](C)CN([C@H](C)CO)C(=O)c2cc(NS(C)(=O)=O)ccc2O1
54) O=C(C=CC(=O)Nc1ccc(F)cc1F)Nc1ccc(F)cc1F
55) C[C@@H]1CCCCO[C@@H](CN(C)C(=O)C2CCCCC2)[C@H](C)CN([C@@H](C)CO)C(=O)c2cc(NC(=O)Nc3cccc4ccccc34)ccc2O1
56) Nc1nc(CSc2nnnn2-c2ccccc2)nc(Nc2ccccc2)n1

Assay by compound	49	50	51	52	53	54	55	56
FGF22 binding	i	i	i	i	i	i	i	i
Ecoli rRNA inh	9	3	-3	8	-3	11	1	5
Ecoli rRNA inh OD600	4	1	-7	2	-7	26	10	6
Ecoli rRNA inh RFP	8.2	-0.1	-0.1	1.6	0.7	-1.9	-2.9	2.0
AF4-AF9 inh	-7.3	0.8	-4.0	-1.9	3.7	2.6	-0.2	-4.4

57) CNC[C@H]1OCCCC[C@H](C)Oc2ccc(NS(=O)(=O)c3ccc(C)cc3)cc2C(=O)N([C@H](C)CO)C[C@H]1C
58) COCC(=O)Nc1ccc2c(c1)OC[C@H](C)N(C(=O)Cc1ccccn1)C[C@H](C)[C@@H](OC)CN(C)C2=O
59) C[C@H](CO)N1C[C@H](C)[C@H](CN(C)C(=O)Nc2ccc(F)cc2)Oc2ccc(NC(=O)Nc3cccc4ccccc34)cc2C1=O
60) CCS(=O)(=O)Nc1ccc2c(c1)C(=O)N(C)C[C@H](OC)[C@H](C)CN(C(C)=O)[C@@H](C)CO2
61) CN1c2ccc(Br)cc2[C@H]2[C@H](CCN2S(=O)(=O)c2cccc(F)c2)[C@@H]1CO
62) O=C(NCC[C@@H]1CC[C@@H](NC(=O)C2CC2)[C@H](CO)O1)c1cnccn1
63) COc1ccc(-c2cnc3c(c2)C(=O)N([C@@H](C)CO)C[C@@H](C)[C@H](CN(C)Cc2cccnc2)O3)cc1

Assay by compound	57	58	59	60	61	62	63
FGF22 binding	i	i	i	i	i	i	i
Ecoli rRNA inh	6	1	-3	1	-49	4	2
Ecoli rRNA inh OD600	6	3	2	-1	-58	-1	3
Ecoli rRNA inh RFP	-1.0	-1.1	0.6	0.4	13	-2.5	4.9
AF4-AF9 inh	-3.2	-1.7	0.6	1.2	-1.1	1.7	-4.8

An excerpt from above, limited to Ecoli rRNA inh OD600 and AF4-AF9 inh.
nr | SMILES | Ecoli rRNA inh OD600 | AF4-AF9 inh
60 | CCS(=O)(=O)Nc1ccc2c(c1)C(=O)N(C)C[C@H](OC)[C@H](C)CN(C(C)=O)[C@@H](C)CO2 | -1 | 1.2
7 | COc1ccc(NC(=O)N[C@H]2CC[C@@H](CCNC(=O)c3ccccc3F)O[C@H]2CO)cc1 | -3 | -1.6
